RSV antiviral HEp-2: RSV antiviral activity via CPE protection, HEp-2 cells, primary 10 µM value included (AID 2391) | HEp-2 cells, RSV-induced CPE inhibition; higher % means a stronger effect | CPE inhibition, % at 10 µM, or IC50 in µM where a hit was titrated | hit rate 0.13% among 310,000; in the data active = a potency from the dose series; inconclusive = CPE inhibition mostly from about 23% at the one dose, without a potency; inactive = the rest, 99 in 100 with CPE inhibition below about 21%; note: strong numbers were not always called active
K1F lysis inhibition: inhibition of K1F phage lysis, E. coli UTI89, bacterial capsule biogenesis inhibitors, alamar blue (AID 488966); E. coli UTI89 K1F phage lysis, alamar blue, 2 h; higher % means a stronger effect; inhibition, % at 100 µM; hits with a dose series show IC50 in µM; hit rate 0.02% among 340,000;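 active = phage lysis inhibition, versus mean bacterial control, above a set limit; inconclusive = no clear call, values can overlap the other calls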;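 note: capsule biogenesis inhibitors block K1F phage lysis so surviving cells raise fluorescence; higher fluorescence means more inhibition of phage lysis; actives were called in the ten point dose series up to 300 µM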
TNAP activators: human TNAP enzyme activators, primary screen, biochemical, luminescent, no phosphate acceptor, uHTS (AID 1001); Alkaline phosphatase, tissue-nonspecific isozyme (Homo sapiens); one-dose activation fold at 20 µM; EC50 in µM for titrated hits; hit rate 0.03% among 200,000; purified TNAP, luminescent activation assay, no phosphate acceptor; higher activation fold means a stronger effect; in the data active = activation fold from about 3, or a potency from the dose series; inactive = the rest, 99 in 100 with activation fold below about 1.6; note: many of its hits are not listed in these tables
M17LAP inhibition: P. falciparum M17LAP inhibitors, primary screen, biochemical, fluorogenic H-Leu-NHMec substrate, 1536-well (AID 1619); Leucine aminopeptidase (Plasmodium falciparum (isolate 3D7)); recombinant M17LAP, H-Leu-NHMec fluorogenic kinetic assay; higher % means a stronger effect; inhibition, % at 30 µM, or IC50 in µM where a hit was titrated; hit rate 0.38% among 220,000;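 active = compound inhibiting the enzyme by more than half at any dose during confirmatory dose-response retesting; inconclusive = strong single-dose inhibitors picked by rank but not retested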;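 note: plate controls were full reaction with DMSO carrier for no effect and no enzyme background for full effect; strong numbers were not always called active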
West Nile virus CPE: West Nile virus antiviral activity, cell-based, CPE readout (AID 1621); West Nile virus-infected cells, CPE inhibition; higher % means a stronger effect; one-dose CPE inhibition, % at 10 µM; IC50 in µM for titrated hits; hit rate 0.02% among 290,000; in the data active = a potency from the dose series; inconclusive = CPE inhibition mostly from about 3.7% at the one dose, without a potency; inactive = the rest, 99 in 100 with CPE inhibition below about 2.2%; note: strong numbers were not always called active
T cell HTS: modulators of CD8 T cell-vesicle binding, primary screen, mouse 2C CD8+ T cells, flow cytometry | 2C CD8+ T cell-vesicle binding; hits give low values | calls only at 7 µM | hit rate 0.068% among 330,000 | AID 2052, 2009;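 active = response, share of CD8 T cells binding vesicles, and their 90th percentile fluorescence all below set limits, cut at about 80% in these data, passing the limit was not always enough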
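Assay system: 2C TCR transgenic mouse naive CD8+ T cells, MACS-purified | Read-out: CD8+ gate FL2 mean fluorescence as % of same-row positive control | Signal: High-throughput flow cytometry with anti-B7-1 and anti-CD8 staining | Timing: Binding step 1.5 h, 37 °C, antibody labelling 20 min, ice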
M1AAP inhibition: P. falciparum M1AAP inhibitors, biochemical, fluorogenic H-Leu-NHMec substrate, 1536-well (AID 1445); Aminopeptidase N (Plasmodium falciparum (isolate 3D7)); recombinant M1AAP, H-Leu-NHMec fluorogenic kinetic assay; higher % means a stronger effect; hit rate 0.42% among 220,000; one-dose inhibition, % at 30 µM; IC50 in µM for titrated hits;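 active = primary inhibition above the hit cutoff, then over 50% inhibition at one or more dose response concentrations, cut at about 23% in these data, passing the limit was not always enough; inconclusive = conflicting primary data, or primary hits not chosen for dose response; inactive = low primary inhibition, or under 50% at every dose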;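 note: plate controls were DMSO full reaction for no effect and no enzyme background for full effect; strong numbers were not always called active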
T cell HTS vesicle-bound %: second read-out of T cell HTS, no call of its own (marks repeat the call); double positive events, %; measured here: CD8+ vesicle-bound cell fraction;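 binding gate set so that unloaded-vesicle control wells show 10% double positive cells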
* = called active by the depositor; i = inactive; u = inconclusive; x = not tested or not shown; [ ] = dose if it differs, or a comment.

Molecule,RSV antiviral HEp-2,K1F lysis inhibition,TNAP activators,M17LAP inhibition,West Nile virus CPE,T cell HTS,T cell HTS vesicle-bound %,M1AAP inhibition
COC(=O)C(CCSC)NC(=O)CNS(=O)(=O)c1ccc(F)cc1 (stereo not drawn),1.9%,-0.2%,1.1,-5%,1.4%,i,41,15%
CCOc1ccccc1/C=N/NC(=O)Cc1csc(Nc2cccc(C(F)(F)F)c2)n1,5.7%,0.3%,1.1,6%,0.3%,i,22,7%
COc1ccc(CCNc2ccncn2)cc1,2.2%,0.1%,1.1,-10%,0.0%,i,48,-2%
C=CCNC(=O)c1onc(CSc2cc(C)cc(C)c2)c1C(=O)O,21%,-0.3%,1,16%,0.1%,i,24,5%
Cc1cc(=O)oc(C)c1C(=O)NCc1ccccn1,1.0%,0.9%,1.1,5%,0.1%,i,42,8%
COc1ccccc1NS(=O)(=O)c1cc(C(=O)N2CC(C)CC(C)C2)ccc1C (stereo not drawn),19%,-0.1%,1.1,-1%,-0.6%,i,40,9%
CCOC(=O)C1CCN(C(=O)c2cccnc2Cl)CC1,3.0%,7.0%,1.1,-4%,-0.5%,i,46,1%
COC(=O)c1cc2n(n1)CCN(Cc1ccc(OC)cc1)C2=O,1.1%,0.5%,0.9,-3%,0.1%,i,34,-2%
Cc1ccc(S(=O)(=O)c2c(C)cc(-c3ccccc3)[nH]c2=O)cc1,12%,0.4%,1.1,0%,-1.3%,i,42,4%
CN(C)C(=O)CSc1nnc(Cc2ccc([N+](=O)[O-])cc2)o1,-2.1%,-0.6%[50 µM],1.1,15%,-0.9%,i,35,-4%
CCCC(=O)Nc1sc(C)c(-c2ccc(C(C)CC)cc2)c1C#N (stereo not drawn),x,4.9%,1.1,0%,-0.6%,i,37,-1%
COc1cc(C2N(c3cc(C)on3)C(=O)C3CCCN32)cc(OC)c1OC (stereo not drawn),0.2%,0.1%,1,20%,0.5%,i,38,7%
CCCc1nnc(SCC(=O)N2CCCCC2C)n1CC1CCCO1 (stereo not drawn),0.0%,0.8%,1.1,-5%,0.4%,i,39,1%
Cc1cnn(-c2cc(N/N=C/c3ccccc3Cl)ncn2)c1,2.1%,-0.5%,1,-6%,0.1%,i,45,11%
CCC(C)(C(=O)NC1CCCC1)N(C(=O)c1ccccn1)c1ccccc1 (stereo not drawn),2.3%,3.4%,1.1,1%,-0.4%,i,20,2%
Cc1c(NC(=O)/C(=C\c2ccccc2)NC(=O)c2ccccc2)c(=O)n(-c2ccccc2)n1C,1.9%,0.4%,1.1,6%,0.0%,i,32,-1%
CC1CCc2c(C(=O)NCCN3CCOCC3)csc2C1 (stereo not drawn),0.2%,0.2%,1.1,2%,-0.4%,i,34,11%
CC(C)CNC(=S)NC1CC2CCC(C1)N2Cc1ccccc1 (stereo not drawn),0.5%,0.4%[50 µM],1,-6%,-0.9%,i,19,7%
CCOc1ccc2c(=O)c(Oc3ccccc3)c(C)oc2c1,-0.8%,0.7%,1,-5%,x,i,48,0%
O=C1OCC(CO)(CO)N=C1NNc1ccc(Cl)c(Cl)c1,2.2%,3.4%,1,26%,-0.5%,i,11,6%
O=C(N/N=C/c1ccco1)c1ccccn1,1.7%,0.6%,1.1,16%,0.3%,i,16,2%
Cc1cc2nc(-c3ccc(SCc4ccc(C#N)cc4)nc3)[nH]c2cc1C,12%,0.0%,1,2%,0.3%,i,37,7%
O=C1c2ccccc2CCC12N=NCC2c1ccccc1 (stereo not drawn),2.4%,-0.1%,1.1,76%,-0.4%,i,23,7%
Cc1cc(C)c(C#N)c(SCC(=O)C(C)(C)C)n1,-0.3%,3.4%,1,2%,-0.4%,i,36,-3%
Cc1ccc(C)c(NC(=S)c2ccccn2)c1,1.1%,2.1%,1,-9%,-0.1%,i,56,-1%
O=[N+]([O-])c1cc(C(F)(F)F)ccc1NCCCCNS(=O)(=O)c1ccc2ccccc2c1,0.7%,3.3%,1,-7%,-0.4%,i,43,9%
CC(C)CC(=O)N1CCC(O)(CS(=O)(=O)Cc2ccccc2)CC1,0.5%,0.3%,1.1,4%,0.5%,i,19,-1%
CCOc1cc(CNc2ccc3c(c2)OCCO3)cc(Br)c1OCC,2.4%,0.1%,1,0%,1.3%,i,49,8%
CCOC(=O)c1c[nH]c2c(C)cc(C)cc2c1=O,2.6%,-0.1%,1.1,-5%,-0.4%,i,56,4%
CCOC(=O)c1c(C)[nH]c(C(=O)C(C)Sc2ccc(Cl)cc2)c1C (stereo not drawn),6.2%,-0.3%,1,11%,-0.5%,i,14,3%
Cc1cc(C)n(-c2cc(N3CCN(C(=O)c4cccc(Br)c4)CC3)ccc2[N+](=O)[O-])n1,u,0.8%,1,-8%,0.1%,i,36,12%
Cc1oc(/C=N/NC(=O)CN(c2ccccc2Br)S(C)(=O)=O)cc1Br,x,0.0%,1.1,24%,0.3%,i,14,3%
Cc1c(NC(=O)C(C)OC(=O)[C@@H](NC(=O)c2ccccc2)C(C)C)c(=O)n(-c2ccccc2)n1C (stereo partly drawn),0.5%,-1.1%,0.9,2%,-0.2%,i,9,11%
CN(C)S(=O)(=O)c1ccc(NC(=O)c2c(F)cccc2Cl)cc1,5.1%,2.6%,1.1,2%,-0.3%,i,16,8%
CCN1CCCC1CNC(=O)c1cc(NC(C)=O)c(N(C)C)cc1OC (stereo not drawn),1.5%,0.3%,1.1,3%,0.3%,i,58,-2%
C=CCn1c(SCc2ccc(C#N)cc2)nnc1-c1ccc(C)cc1,3.4%,5.5%,1.1,-4%,-1.4%,i,49,5%
O=C(Nc1cccc(-c2nc3ccccc3s2)c1)c1ccc2c(c1)OCO2,12%,4.4%,1.1,-1%,-0.5%,i,63,2%
CCNC(=S)NNC(=O)c1ccoc1C,4.1%,0.8%,1.1,-12%,-0.1%,i,26,1%
COC(=O)c1cccc(C(=O)Oc2cccc(Br)c2)n1,-0.5%,0.1%,1.2,-2%,-0.1%,i,16,3%
O=C(/C=N/O)Nc1ccccc1,2.5%,0.8%,1,-9%,0.2%,i,60,6%
COc1ccc(C2CC(=O)c3cnc(NC(=O)c4cccc(OC)c4)nc3C2)cc1 (stereo not drawn),-1.0%,0.0%,1,8%,0.0%,i,40,7%
O=C(NC(NC(=S)Nc1ccccc1)C(Cl)(Cl)Cl)c1cccc(Cl)c1 (stereo not drawn),-3.4%,1.2%,1.1,-2%,3.2%,i,38,14%
COc1ccc(-c2c(C)nn(Cc3ccccc3)c2N)cc1,-1.1%,1.9%,1.1,14%,0.2%,i,38,2%
CCCCN(C(=O)c1c(C)[nH]c(C(=O)OCC)c1C)c1ccccc1,2.5%,-1.2%,1.1,4%,1.2%,i,40,4%
CCN(CC)S(=O)(=O)c1ccc2c(c1)nc(CCC(=O)Nc1cccc(C(F)(F)F)c1)n2CC,1.2%,-0.3%,1.2,0%,-0.5%,i,49,3%
CCOC(=O)C1=C(COc2ccc(F)cc2Cl)NC(=O)NC1c1cc(C)ccc1C (stereo not drawn),0.5%,1.5%,1,2%,-0.2%,i,61,9%
Cc1ccc2oc(-c3cccc(NC(=S)NC(=O)/C=C/c4ccco4)c3)nc2c1,5.5%,-0.2%,1,45%,0.8%,i,57,17%
COc1cccc(N(C(=O)Cn2nnc(-c3cccs3)n2)C(C(=O)NC2CCCCC2)c2ccncc2)c1 (stereo not drawn),-0.2%,0.0%,0.9,-3%,x,i,33,0%
COC(=O)c1cccc(-n2[nH]nnc2=S)c1,0.7%,-0.4%,1.1,14%,0.5%,i,53,9%
Cn1nc(C(F)(F)F)c(C(=O)Nc2ccc(Cl)cc2)c1Cl,1.4%,0.3%,0.9,-1%,-0.6%,i,36,-11%

Additional results:
Molecule,RSV antiviral HEp-2,K1F lysis inhibition,TNAP activators,M17LAP inhibition,West Nile virus CPE,T cell HTS,T cell HTS vesicle-bound %,M1AAP inhibition
CC(C)(O)c1cn(-c2nonc2N)nn1,0.5%,0.1%,1.1,2%,0.0%,i,1,5%
CCOc1cc(CNCc2cccs2)cc(Br)c1OC,-0.8%,1.3%,1.1,-8%,-0.5%,i,4,3%
CN1C(=O)CC(NNC(=O)c2ccccc2)C1=O (stereo not drawn),1.5%,-1.1%,1.1,0%,-0.1%,i,38,-6%
COc1ccc(C2C(Oc3ccccc3)C(=O)N2c2cc(C)ccc2C)cc1OC (stereo not drawn),3.0%,0.3%,1.1,6%,x,i,36,10%
Cc1ccc(C(=O)c2oc3nc(C)cc(C)c3c2N)cc1,1.0%,1.3%,0.9,11%,-0.7%,i,32,3%
CC(C)NC(=O)CC(=O)N/N=C/c1ccc(Br)cc1,-1.1%,1.6%,1.1,-38%,-0.4%,i,17,9%

Complete entries as entered above. Order of screens: RSV antiviral HEp-2, K1F lysis inhibition, TNAP activators, M17LAP inhibition, West Nile virus CPE, T cell HTS, T cell HTS vesicle-bound %, M1AAP inhibition
CC(C)NC(=O)CC(=O)N/N=C/c1ccc(Br)cc1 across the screens: -1.1%, 1.6%, 1.1, -38%, -0.4%, i, 17, 9%
CCCc1nnc(SCC(=O)N2CCCCC2C)n1CC1CCCO1 (stereo not drawn) across the screens: 0.0%, 0.8%, 1.1, -5%, 0.4%, i, 39, 1%
COc1ccccc1NS(=O)(=O)c1cc(C(=O)N2CC(C)CC(C)C2)ccc1C (stereo not drawn) across the screens: 19%, -0.1%, 1.1, -1%, -0.6%, i, 40, 9%
CC(C)CNC(=S)NC1CC2CCC(C1)N2Cc1ccccc1 (stereo not drawn) across the screens: 0.5%, 0.4%[50 µM], 1, -6%, -0.9%, i, 19, 7%
C=CCNC(=O)c1onc(CSc2cc(C)cc(C)c2)c1C(=O)O across the screens: 21%, -0.3%, 1, 16%, 0.1%, i, 24, 5%

These rows are one share of the data (hit frequency here may not be typical).
